Source: PubChem BioAssay
Tg IFNy HTS – T. gondii growth inhibition under IFN-gamma; Toxoplasma gondii growth in IFN-gamma-treated host cells; active compounds read low; reference of the scale not given here; activity change, negative = inhibition, %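 (about 20 µM by stock and volumes)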; hit rate 3.8% among 69,000;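 active = below -70%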;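 note: host cells are HeLa cells infected with Toxoplasma gondii; parasite growth read as luciferase light; one replicate is shown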
Active calls of the source: *; & = joins results of further samples.

1: COC(=O)[C@H]1[C@H](CO)[C@H]2Cn3c(ccc(-c4ccc(F)cc4)c3=O)[C@@H]1N2C(=O)c1ccccc1F
  Tg IFNy HTS: 3.0
2: O=S(=O)(c1ccccc1)N1CC2CNCC2C1 (stereo not drawn)
  Tg IFNy HTS: -45.7
3: O=C(c1nc(=O)[nH]c2ccccc12)N1CCCC2(CCNC2)C1 (stereo not drawn)
  Tg IFNy HTS: 4.5
4: CCN1CCN(C)C2(CCN(c3ccc(C)nn3)CC2)C1=O
  Tg IFNy HTS: 86.0
5: CN1C(=O)C2(CCN(Cc3nccs3)CC2)c2ccccc21
  Tg IFNy HTS: 3.3
6: Cc1cccc(S(=O)(=O)N2CC[C@@H]3CNC[C@@H]32)c1
  Tg IFNy HTS: 455.8
7: O=C(Cc1ccncc1)N1CCCCN2[C@H](CO)[C@@H](c3ccc(C#Cc4ccccc4F)cc3)[C@H]2C1
  Tg IFNy HTS: -31.6
8: COC1(CS(=O)c2ccccc2)CCN(CCc2c[nH]c3ccc(F)cc23)CC1 (stereo not drawn)
  Tg IFNy HTS: 3.0
9: Cc1ccc(NC(=O)N2CC3CNC(C3)C2)cc1 (stereo not drawn)
  Tg IFNy HTS: 26.7
10: COCCN1CCOC2CCN(C(=O)Cc3cccnc3)CCC21 (stereo not drawn)
  Tg IFNy HTS: 7.6
11: Cn1cccc1CN1C[C@H]2CN(Cc3cccnc3)C[C@H]2C1
  Tg IFNy HTS: -4.4
12: Cc1oncc1C(=O)N1CCC2(CC1)C(=O)N(C)CCN2C
  Tg IFNy HTS: 1.9
13: Cc1ccc(NC(=O)c2cc3cccnc3n(Cc3ccc(Cl)cc3)c2=O)cc1F
  Tg IFNy HTS: 63.5
14: CN1C2CCC1CC(OC(c1ccccc1)c1ccc(Cl)cc1)C2 (stereo not drawn)
  Tg IFNy HTS: -12.3&-55.4
15: CN1C2CCC1CC(OC(=O)CCN1CCCC1)C2 (stereo not drawn)
  Tg IFNy HTS: 4.1
16: O=C1NC(=O)C(C(CC(=O)c2ccccc2)c2ccccc2)C(=O)N1 (stereo not drawn)
  Tg IFNy HTS: 10.9

6 records drawn at random from the list so far:
7: O=C(Cc1ccncc1)N1CCCCN2[C@H](CO)[C@@H](c3ccc(C#Cc4ccccc4F)cc3)[C@H]2C1
  Tg IFNy HTS: -31.6
15: CN1C2CCC1CC(OC(=O)CCN1CCCC1)C2 (stereo not drawn)
  Tg IFNy HTS: 4.1
3: O=C(c1nc(=O)[nH]c2ccccc12)N1CCCC2(CCNC2)C1 (stereo not drawn)
  Tg IFNy HTS: 4.5
5: CN1C(=O)C2(CCN(Cc3nccs3)CC2)c2ccccc21
  Tg IFNy HTS: 3.3
12: Cc1oncc1C(=O)N1CCC2(CC1)C(=O)N(C)CCN2C
  Tg IFNy HTS: 1.9
11: Cn1cccc1CN1C[C@H]2CN(Cc3cccnc3)C[C@H]2C1
  Tg IFNy HTS: -4.4

This is a subset. The share of hits here may be higher or lower than overall.
